# Screening results from PubChem.
# AF4-AF9 inh – inhibitors of human MLL-AF4/AF9 interaction; inhibition, % at 10 µM; AlphaScreen, biotin-AF4 peptide binding to FLAG-AF9; P42568; hit rate 0.47% among 350,000; AID 651704;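 active = every replicate reaching a set inhibition limit, whatever the replicate mean, cut at about 25% in these data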;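 note: 0% = plate neutral control median and 100% = total signal loss; the record names both 10 and 1 µM as test concentration; the first replicate is given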
# Target sequence (P42568 whole entry, looked up): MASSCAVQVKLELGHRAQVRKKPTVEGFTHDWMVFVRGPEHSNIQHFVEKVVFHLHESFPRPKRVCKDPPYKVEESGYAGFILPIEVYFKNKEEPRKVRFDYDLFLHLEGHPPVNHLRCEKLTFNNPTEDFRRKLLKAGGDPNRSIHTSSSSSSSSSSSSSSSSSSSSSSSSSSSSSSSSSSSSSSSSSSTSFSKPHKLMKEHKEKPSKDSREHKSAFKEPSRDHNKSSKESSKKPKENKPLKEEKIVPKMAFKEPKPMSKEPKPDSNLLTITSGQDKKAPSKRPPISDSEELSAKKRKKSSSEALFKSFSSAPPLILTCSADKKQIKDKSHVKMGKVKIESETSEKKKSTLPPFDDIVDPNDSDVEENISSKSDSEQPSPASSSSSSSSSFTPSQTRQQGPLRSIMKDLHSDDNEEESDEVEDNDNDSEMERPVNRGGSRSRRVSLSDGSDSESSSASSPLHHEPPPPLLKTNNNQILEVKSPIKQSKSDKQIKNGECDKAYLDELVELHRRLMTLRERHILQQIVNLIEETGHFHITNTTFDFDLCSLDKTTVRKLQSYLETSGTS
# rRNA inh HTS – selective bacterial rRNA inhibition in E. coli; E. coli WT GFP vs humanized-ribosome RFP mutants, fluorescence, 24 h; active compounds read low; DMSO median 0, no signal -100; GFP signal change (wild-type ribosome), % (no concentration beside the values); hit rate 1.6% among 350,000; AID 720706;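 active = significant combined selectivity score with lowered wild-type GFP, culture density cut under 30%, mutant RFP and density less affected; inactive = any of these conditions unmet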; note: one replicate is shown; some compounds called inactive have numbers as strong as hits
# FGF22 binding – FGF22 (human) thermal shift binding | Q9HCT0 | recombinant FGF22 thermal shift, SYPRO orange fluorescence; percent of sucrose octasulfate shift, DMSO zero | calls only at 9.99 µM | hit rate 1.5% among 340,000;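 active = melting point raised past a set limit in the mean and every replicate; three in four hits are not shown here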
# Target sequence (Q9HCT0 whole entry, looked up): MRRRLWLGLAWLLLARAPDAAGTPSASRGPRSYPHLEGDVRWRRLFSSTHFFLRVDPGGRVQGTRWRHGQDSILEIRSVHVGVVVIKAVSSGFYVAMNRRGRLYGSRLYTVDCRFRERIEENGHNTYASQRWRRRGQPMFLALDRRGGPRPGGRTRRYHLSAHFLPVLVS
# rRNA inh HTS OD600 – recorded beside rRNA inh HTS, whose call it bears; OD600 change, %; measured here: OD600 growth;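 optical density of the mix in the first replicate; 0 = DMSO median and -100 = no signal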
# rRNA inh HTS RFP – recorded beside rRNA inh HTS, whose call it bears; RFP signal change, %; measured here: RFP humanized mutant strains;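 first replicate; 0 = DMSO median and -100 = no signal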
# * hit, by the source's call; i = inactive; . = no result given; & = joins results of further samples. Not all compounds are listed; count on the stated rates, not on these rows.
AF4-AF9 inh	rRNA inh HTS	rRNA inh HTS OD600	rRNA inh HTS RFP	FGF22 binding	compound
8.4	-28	-5	25	i	CC(C)OC(=O)c1ccc(NCc2cc(O)ccc2O)cc1
-0.2	3	0	-0.6	i	O=C(N[C@@H]1CC[C@H](CCNS(=O)(=O)c2ccccc2)O[C@H]1CO)c1cnccn1
-1.9	8	18	-0.6	i	C[C@H](CO)N1C[C@H](C)[C@H](CN(C)Cc2ccccn2)Oc2ncc(C#CCN(C)C)cc2C1=O
-0.5&4.2	18	-1	3.9	i	Cc1ccc(-c2ccc3c(c2)O[C@H](CN(C)C(=O)Nc2ccc(C(F)(F)F)cc2)[C@H](C)CN([C@H](C)CO)S3(=O)=O)cc1
-1.5	0	-12	11	i	O=C(C[C@@H]1CC[C@H]2[C@@H](COC[C@@H](O)CN2S(=O)(=O)c2cccc(Cl)c2)O1)Nc1ccc(-c2ccccc2)cc1
-1.7	3	-3	-0.8	i	C[C@@H]1CN([C@@H](C)CO)C(=O)c2cc(NS(C)(=O)=O)ccc2O[C@@H]1CN(C)Cc1ccc(C(=O)O)cc1
0.7	-5	-8	1.3	i	CO[C@H]1CN(C)C(=O)c2ccc(NC(=O)NC(C)C)cc2OC[C@H](C)N(Cc2ccc(-c3ccccn3)cc2)C[C@@H]1C
-2.5	1	2	-1.9	i	C[C@@H]1CCCCO[C@@H](CN(C)S(=O)(=O)c2cccs2)[C@@H](C)CN([C@H](C)CO)C(=O)c2cc(NC(=O)C3CCCCC3)ccc2O1
-5.2	1	8	-3.2	i	Cc1ccccc1-c1ccc([C@H]2[C@H](CO)N3CCCCN(C(=O)CN4CCOCC4)C[C@@H]23)cc1
-2.4	-4	-15	0.8	i	COc1cccc(S(=O)(=O)Nc2ccc3c(c2)[C@H]2C[C@H](CC(=O)NCCc4ccccc4)O[C@H](CO)[C@H]2O3)c1
0.4	16	13	-2.4	i	C[C@H]1Cn2cnc(C(=O)Nc3ccc(CNC(=O)OC(C)(C)C)cc3)c2C(=O)N1
-3.6	6	13	-2.5	i	Cc1ccc(S(=O)(=O)N2C[C@H]3C(=O)C[C@@H](c4ccccc4)N(S(=O)(=O)c4ccccc4[N+](=O)[O-])[C@H]3C[C@H]2c2ccccc2)cc1
-0.4	2	2	-2.3	i	Cc1ccc(S(=O)(=O)N(C)C[C@H]2OCc3ccccc3-c3c(n(C)c4ccccc34)C(=O)N([C@@H](C)CO)C[C@@H]2C)cc1
1.4	-1	-16	2.0	i	COc1ccc(NC(=O)Nc2ccc3c(c2)CC(=O)N([C@@H](C)CO)C[C@@H](C)[C@@H](CN(C)S(=O)(=O)c2c(C)noc2C)O3)cc1
-0.7	4	9	-1.7	i	C[C@H]1CN([C@@H](C)CO)C(=O)c2cc(C#CCc3ccccc3)cnc2O[C@@H]1CN(C)C(=O)C1CCOCC1
0.4	4	9	-0.8	i	O=C(N[C@H]1CC[C@H](CCn2cc(C3(O)CCCC3)nn2)O[C@H]1CO)C1CCCC1
-3.3	-7	0	0.8	i	C=C1C[C@@H]2C[C@@H]2CN(S(=O)(=O)c2ccc(C)cc2)[C@@H]1COCc1ccccc1
-7.9	7	18	-0.7	i	C[C@H](CO)N1C[C@H](C)[C@H](CN(C)S(=O)(=O)c2ccccc2)Oc2ccc(NC(=O)Nc3ccc(C(F)(F)F)cc3)cc2CC1=O
1.2	5	6	0.9	i	C[C@@H]1CN([C@H](C)CO)C(=O)Cc2cc(NS(=O)(=O)c3cn(C)cn3)ccc2O[C@H]1CN(C)S(=O)(=O)c1ccc(Cl)cc1
-9.4	0	3	-5.5	i	CC(C)NC(=O)N1C[C@@H]2[C@H](c3ccccc31)[C@H](CO)N2C(=O)C1CCCC1
-1.0	4	9	0.6	i	COc1ccc(NC(=O)N(C)C[C@@H]2Oc3ccc(NC(=O)NC(C)C)cc3C(=O)N([C@H](C)CO)C[C@H]2C)cc1
5.7	0	-3	-0.4	i	CC(C)NC(=O)CSc1ccccc1C(=O)N1CCN(S(=O)(=O)Cc2ccccc2)CC1
-0.8	-2	15	-1.9	i	CCOC(=O)[C@]12CCCC=C1N(Cc1cccc3ccccc13)C(=O)[C@H](CC(=O)NCC13CC4CC(CC(C4)C1)C3)C2
-2.0	3	-7	-0.2	i	COc1ccc(S(=O)(=O)N(C)C[C@@H]2Oc3ccc(NC(=O)C4CCCCC4)cc3C(=O)N([C@H](C)CO)C[C@@H]2C)cc1
-6.0	0	-1	-1.4	i	C[C@@H]1CN([C@@H](C)CO)C(=O)c2cc(NC(=O)Nc3cccc4ccccc34)ccc2O[C@@H](C)CCCCO[C@H]1CN(C)C(=O)Cc1ccccc1
-1.9	3	9	-1.6	i	CNC(=O)C[C@H]1CC[C@H]2[C@@H](COC[C@H](O)CN2C(=O)Nc2cccc(OC)c2)O1
8.1	7	-3	0.6	i	CN(C)CCCNc1nc2cc(-c3ccc4c(ccn4C)c3)sc2c(=O)n1C
0.1	4	0	-0.7	i	C[C@@H]1CN([C@@H](C)CO)C(=O)c2cc(NC(=O)Cc3ccccc3)ccc2O[C@@H]1CN(C)CC1CCCCC1
1.6	-5	-23	9.1	i	O=C(NC1CCCC1)N1CCCCN2[C@H](CO)[C@H](c3ccc(-c4ccccc4)cc3)[C@H]2C1
-1.9	0	-7	-0.6	i	COCC#Cc1ccc2c(c1)O[C@@H](CN(C)C(=O)C1CCOCC1)[C@@H](C)CN([C@@H](C)CO)S2(=O)=O
0.5	2	-2	-1.2	i	C/C=C/c1ccc2c(c1)O[C@H](CN(C)C)[C@@H](C)CN([C@@H](C)CO)S2(=O)=O
23	-1	-23	8.6	i	COc1ccc2c3c([nH]c2c1)[C@@H](CO)N(C(=O)C1CC1)CC31CN(Cc2cccc(F)c2)C1
0.3	2	11	-0.8	i	C[C@H]1CN([C@@H](C)CO)S(=O)(=O)c2ccc(-c3ccccc3)cc2O[C@@H]1CN(C)Cc1cccc(F)c1
3.8	-14	7	6.4	i	Cc1cc2c(cc1C)C(=O)C(=O)N2
4.6	-2	-3	1.2	i	C[C@H]1CN([C@@H](C)CO)C(=O)c2cccc(NS(=O)(=O)c3cccs3)c2O[C@H]1CN(C)Cc1ccc(Oc2ccccc2)cc1
-21	6	9	-5.8	i	CC(=O)N1C[C@H]2[C@@H](c3ccccc31)[C@@H](CO)N2C(=O)CC1CC1
1.3	0	-15	5.2	i	O=C(C[C@H]1C[C@@H]2c3cc(NS(=O)(=O)c4ccc(F)cc4)ccc3O[C@@H]2[C@H](CO)O1)NCc1cc(F)ccc1F
2.5	0	-18	11	i	C[C@@H]1CN([C@H](C)CO)C(=O)c2cc(NS(=O)(=O)c3ccccc3)ccc2O[C@@H]1CN(C)Cc1ccc(-c2ccccc2)cc1
-1.6	7	8	5.2	i	CC(C)c1ccc(NC(=O)Nc2nnc([C@@H]3C[C@H](O)[C@@H](CO)O3)s2)cc1
-0.3	5	9	-2.6	i	CN(C)CC(=O)Nc1ccc2c(c1)[C@@H]1C[C@H](CC(=O)NCCc3ccccc3)O[C@H](CO)[C@@H]1O2
-0.1	-5	-7	-3.8	i	COc1ccc2c3c([nH]c2c1)[C@H](CO)N(C(=O)NC(C)C)CC31CCN(C(=O)C2CCCCC2)CC1
-1.2	2	-2	-1.0	i	C/C=C/c1ccc([C@H]2[C@@H](CO)N(Cc3cncnc3)C23CN(C(=O)COC)C3)cc1
1.9	3	13	-0.8	i	CC(=O)NC[C@H]1[C@H](c2ccccc2)[C@@H](CO)N1C(=O)Cc1cccnc1
-2.4	5	16	1.9	.	COc1cc2oc(=O)cc(CN3CCN(C(C)=O)CC3)c2cc1Cl
-1.4	6	11	4.3	i	COc1ccc(NC(=O)N(C)C[C@H]2OCCCC[C@H](C)Oc3ccc(NC(=O)NC4CCCCC4)cc3C(=O)N([C@H](C)CO)C[C@H]2C)cc1
-1.9	-1	-9	3.0	i	C[C@@H]1CN([C@H](C)CO)C(=O)c2cc(NS(=O)(=O)c3cccs3)ccc2O[C@@H]1CN(C)Cc1ccc(C(F)(F)F)cc1
-1.2	1	0	-3.2	i	O=C(NCC[C@@H]1CC[C@H](NS(=O)(=O)Cc2ccccc2)[C@@H](CO)O1)C1CCOCC1
0.0	0	7	-2.2	i	O=C1OCCC1=COCCCCOC=C1CCOC1=O
-12	0	-2	-1.0	i	C[C@@H]1CCCCO[C@@H](CN(C)C(=O)c2ccccc2)[C@@H](C)CN([C@H](C)CO)C(=O)c2cc(NC(=O)Nc3ccc(F)cc3)ccc2O1
0.1	1	7	0.3	i	Cc1ccccc1NC(=O)Nc1ccc2c(c1)C(=O)N(C)[C@@H]1CC[C@@H](CC(=O)NCC3CC3)O[C@@H]1CO2

# Some of these compounds in order of number of heavy atoms, falling.
AF4-AF9 inh	rRNA inh HTS	rRNA inh HTS OD600	rRNA inh HTS RFP	FGF22 binding	compound
-12	0	-2	-1.0	i	C[C@@H]1CCCCO[C@@H](CN(C)C(=O)c2ccccc2)[C@@H](C)CN([C@H](C)CO)C(=O)c2cc(NC(=O)Nc3ccc(F)cc3)ccc2O1
23	-1	-23	8.6	i	COc1ccc2c3c([nH]c2c1)[C@@H](CO)N(C(=O)C1CC1)CC31CN(Cc2cccc(F)c2)C1
0.5	2	-2	-1.2	i	C/C=C/c1ccc2c(c1)O[C@H](CN(C)C)[C@@H](C)CN([C@@H](C)CO)S2(=O)=O
-2.4	5	16	1.9	.	COc1cc2oc(=O)cc(CN3CCN(C(C)=O)CC3)c2cc1Cl
-21	6	9	-5.8	i	CC(=O)N1C[C@H]2[C@@H](c3ccccc31)[C@@H](CO)N2C(=O)CC1CC1
3.8	-14	7	6.4	i	Cc1cc2c(cc1C)C(=O)C(=O)N2

# 3 consecutive records from above, quoted:
AF4-AF9 inh	rRNA inh HTS	rRNA inh HTS OD600	rRNA inh HTS RFP	FGF22 binding	compound
0.0	0	7	-2.2	i	O=C1OCCC1=COCCCCOC=C1CCOC1=O
-12	0	-2	-1.0	i	C[C@@H]1CCCCO[C@@H](CN(C)C(=O)c2ccccc2)[C@@H](C)CN([C@H](C)CO)C(=O)c2cc(NC(=O)Nc3ccc(F)cc3)ccc2O1
0.1	1	7	0.3	i	Cc1ccccc1NC(=O)Nc1ccc2c(c1)C(=O)N(C)[C@@H]1CC[C@@H](CC(=O)NCC3CC3)O[C@@H]1CO2

# Next section:
AF4-AF9 inh	rRNA inh HTS	rRNA inh HTS OD600	rRNA inh HTS RFP	FGF22 binding	compound
-0.2	-25	-45	17	i	C=CCNc1nc(NCc2cccc(OC)c2)c2sc(-c3ccccc3)cc2n1
14	-14	-29	12	i	COc1ccc(CCNCc2ccc(-c3ccccc3)cc2)cc1OC
0.2	0	3	-1.3	i	COc1ccccc1-c1cn(CC[C@H]2CC[C@H](NC(=O)C3CCC3)[C@@H](CO)O2)nn1
-1.6	1	-1	-3.3	i	C[C@@H]1CN([C@@H](C)CO)C(=O)c2cccc(N(C)C)c2O[C@@H]1CN(C)Cc1ccncc1
-2.2	3	3	-1.0	i	CCC(=O)N(C)C[C@H]1Oc2ncc(C#CC3(O)CCCC3)cc2C(=O)N([C@@H](C)CO)C[C@@H]1C
1.8	-6	-20	25	i	C[C@H](CO)N1C[C@H](C)[C@H](CN(C)C(=O)Nc2ccccc2)Oc2ncc(C#Cc3cccc(F)c3)cc2C1=O
-2.3	3	8	0.6	i	CN1C(=O)c2cc(NC(=O)Nc3ccccc3F)ccc2OC[C@H]2O[C@@H](CC(=O)NCc3ccc(-c4ccccc4)cc3)CC[C@H]21
-1.1	15	13	2.4	i	Nc1ncnc2c1ncn2-c1ccccc1Cl
-0.4	-12	-26	4.0	i	CC(=O)Nc1cc(-c2ccccc2F)cn2c(-c3ccccc3)cnc12
2.1	-4	0	-1.4	i	CO[C@H]1CN(C)C(=O)c2ccc(NS(=O)(=O)c3cccc(F)c3)cc2OC[C@@H](C)N(C(=O)Cc2cccnc2)C[C@H]1C
3.4	1	0	0.0	i	Cc1ccc(S(=O)(=O)N(C)C[C@@H]2OCCCC[C@@H](C)Oc3ccc(NC(=O)Nc4c(C)noc4C)cc3C(=O)N([C@@H](C)CO)C[C@H]2C)cc1
-2.1	1	3	3.1	i	COc1ccc(S(=O)(=O)Nc2cccc3c2O[C@@H](CN(C)C(=O)NC2CCCCC2)[C@@H](C)CN([C@@H](C)CO)C3=O)cc1
-7.5	-1	-4	-0.2	i	COC(=O)C[C@@H]1CC[C@H]2[C@@H](COc3ccc(NC(=O)Nc4cccc(C)c4)cc3C(=O)N2C)O1
-2.7	5	1	-5.9	i	CC(C)C(=O)Nc1ccc(COc2ccccc2CN(Cc2ccccc2)C(=O)OC(C)(C)C)cc1
0.8	-42	-72	-5.0	i	CCCNC(=O)N1[C@@H](C#N)[C@H](c2ccc(C3=CCCCC3)cc2)[C@@H]1CO
-1.6	2	-2	-2.4	i	COc1cccc(S(=O)(=O)N(C)C[C@@H]2Oc3cc(C4=CCCC4)ccc3S(=O)(=O)N([C@@H](C)CO)C[C@H]2C)c1
